# High-throughput results from PubChem.
# Mtb betalactam – beta-lactam sensitization of Mtb H37Rv, H37Rv; M. tuberculosis H37Rv growth with meropenem, percent inhibition; hits of this screen are not shown here; inhibition, % at 25 µM; 0.27% of 330,000 active; AID 434955, 2010;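 active = about 74% or more and at least 40 points above the plate without the antibiotic, then above 30% in a dose series; inconclusive = first-round hits that could not be retested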;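 also: growth measured after seven days incubation then overnight dye step; 0% = bacteria only wells and 100% = bacteria with antibiotic; twin plates without the antibiotic show which effects depend on it; some results filed as inactive read as strong as hits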
# YopH PTP inh – YopH tyrosine phosphatase inhibitors, primary screen, biochemical, fluorescence Ex485/Em525 | inhibition, %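 (about 10 µM by stock and volumes)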 | YopH tyrosine phosphatase [Yersinia enterocolitica] | AID 898, 2007 | 0.16% of 140,000 active;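 active = inhibition of 50% or more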;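 also: controls were vehicle for no effect and minimum signal wells for full effect; inactives centre near -20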
# RecA intein inh – Mtb RecA intein splicing inhibitors, primary screen, biochemical, fluorescence, HTS | Protein RecA (Mycobacterium tuberculosis (strain ATCC 25618 / H37Rv)), P9WHJ3 | cell-free RecA intein splicing | inhibition, %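 (about 9 µM by stock and volumes)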 | 0.75% of 290,000 active | AID 2221, 2009; in the data active = inhibition above about 30%; inconclusive = no clear call, values can overlap the other calls;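 also: 0% = vehicle wells and 100% = reference inhibitor control wells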
# Target sequence (P9WHJ3 whole entry, looked up): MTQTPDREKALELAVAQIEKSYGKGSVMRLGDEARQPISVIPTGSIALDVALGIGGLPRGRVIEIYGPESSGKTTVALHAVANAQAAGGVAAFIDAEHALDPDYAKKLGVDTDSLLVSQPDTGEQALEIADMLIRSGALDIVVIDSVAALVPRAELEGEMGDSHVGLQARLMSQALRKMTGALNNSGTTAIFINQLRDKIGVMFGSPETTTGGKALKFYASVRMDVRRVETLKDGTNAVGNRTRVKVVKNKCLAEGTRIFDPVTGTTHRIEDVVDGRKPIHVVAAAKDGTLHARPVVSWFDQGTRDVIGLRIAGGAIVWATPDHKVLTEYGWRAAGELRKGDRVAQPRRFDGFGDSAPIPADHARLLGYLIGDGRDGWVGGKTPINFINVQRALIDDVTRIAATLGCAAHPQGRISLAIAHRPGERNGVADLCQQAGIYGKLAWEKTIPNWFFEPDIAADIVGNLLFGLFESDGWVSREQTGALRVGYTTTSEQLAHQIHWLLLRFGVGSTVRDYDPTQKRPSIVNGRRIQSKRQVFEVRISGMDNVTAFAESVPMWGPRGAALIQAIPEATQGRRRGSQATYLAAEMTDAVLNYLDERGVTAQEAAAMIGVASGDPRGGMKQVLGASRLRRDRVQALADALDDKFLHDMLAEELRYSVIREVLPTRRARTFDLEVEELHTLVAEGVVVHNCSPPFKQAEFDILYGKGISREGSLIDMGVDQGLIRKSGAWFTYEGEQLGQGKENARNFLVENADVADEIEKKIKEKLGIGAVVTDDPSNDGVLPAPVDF
# Arbovirus anti – antivirals against arbovirus infection, primary screen, cell-based, full library, 10K replicate subset; 0.37% of 200,000 active; AID 1251, 2008; inhibition, % at 10 µM; arbovirus infection cell-based antiviral screen;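 active = inhibition from about 30%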;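 also: bluetongue infection of BSR cells; cell survival read as ATP light after 72 h; 0% = infected wells without compound and 100% = uninfected wells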
# Mtb H37Rv – M. tuberculosis H37Rv growth inhibitors, H37Rv strain (AID 1626). M. tuberculosis H37Rv growth inhibition; higher % means a stronger effect. one-dose inhibition, % at 10 µM; IC50 in µM for titrated hits. 0.95% of 220,000 active;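 active = confirmed in a dose series; inconclusive = inhibition above 80% but not taken into the dose series; inactive = below 80% or under 30% at every dose of the series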;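 also: bacteria incubated seven days before Alamar blue readout; 0% = bacteria only wells and 100% = bacteria with antibiotic wells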
# Arbovirus anti repeat – also measured in Arbovirus anti; calls as there; inhibition, %; measured here: 10K subset replicate screen; many hits read low in the repeat;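 first of two repeat runs on a subset; 0% = infected and 100% = uninfected wells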
# * hit, by the source's call; ? = inconclusive; nt = not tested or not shown. This is a subset, so the mix of outcomes need not match the whole.
SMILES,Mtb betalactam,YopH PTP inh,RecA intein inh,Arbovirus anti,Mtb H37Rv,others
Cc1nc(CNS(=O)(=O)c2ccc(Br)cc2)cs1,?,nt,-1.0,nt,nt,
CC(=O)c1ccc(NC(=O)c2sc3nc(C)c(C)c(C)c3c2N)cc1,5,nt,-1.9,nt,nt,
CCc1nn2cc(C(=O)c3ccccc3O)cnc2c1-c1ccc(F)cc1,-3,-26,7.8,41*,6%,
CCCn1c(SCC(=O)NC(C)(C)C)nnc1C(C)C,-16,-6,-1.2,2,3%,
CCC(OC(=O)C1=Cc2ccccc2OC1)C(=O)NCc1ccco1 (stereo unspecified),1,nt,-2.8,2,-2%,
C=C(c1ccccc1)P(=O)(O)O,-5,-7,-5.8,0,5%,
O=C(c1cc([N+](=O)[O-])ccc1Cl)N1CCc2ccccc21,-5,nt,-0.5,nt,nt,
CC(=O)Nc1ccc(NC(=O)COc2cccc3c2OC(C)(C)C3)cc1,1,nt,-0.5,8,-8%,
CCc1ccc(NC(=O)CCn2cccc2)cc1,92,-2,1.1,-8,74%,
CSc1cccc(CN2CCC(Oc3cccc(C(=O)N4CCCC4)c3)CC2)c1,?,nt,1.5,nt,nt,
O=S(=O)(CCN1CCOCC1)c1ccc(Oc2ccc(S(=O)(=O)CCN3CCOCC3)cc2)cc1,-9,nt,0.9,nt,nt,
CC(OC(=O)c1cccc(-n2cnnn2)c1)C(=O)Nc1ccccc1F (stereo unspecified),-8,nt,1.4,nt,nt,
COc1ccc(/C=C2\SC(=O)N(CC(=O)N(C)C3CCS(=O)(=O)C3)C2=O)cc1 (stereo unspecified),10,nt,1.6,nt,nt,
Cc1ccc(S(=O)CCNC(=O)Cc2ccc(Cl)cc2)cc1 (stereo unspecified),-8,nt,-0.4,2,3%,
O=C(CCCc1nc2ccccc2s1)Nc1ccccc1,-2,nt,4.3,8,nt,
CCN(CC)C(=O)CSc1nnc(-c2ccc(O)cc2)n1CC1CCCO1 (stereo unspecified),7,-4,-7.8,-2,-9%,
COc1ccccc1C(=O)NNC(=O)c1cccc(F)c1,-4,15,4.1,-6,-1%,
CCOc1ccc(C(=O)Nc2ccc(NC(=O)c3ccccc3)cc2)cc1Br,6,nt,-0.6,nt,nt,
CCOc1ccc(N(CC(=O)NCCc2ccc(OC)cc2)S(C)(=O)=O)cc1,-6,nt,0.8,1,-4%,
N#Cc1sc2nc3c(cc2c1N)CCCC3,-4,-11,-0.8,17,-7%,
CCC(C)C(=O)Nc1nnc(-c2cccs2)s1 (stereo unspecified),-2,-39,nt,6,0%,
CN1/C(=C\C(=O)C[n+]2ccc(C(=O)c3ccccc3)cc2)C(C)(C)c2ccccc21,97,nt,-2.1,-4,?,
CCc1nnc(NC(=O)CSc2nncc(=O)n2N)s1,6,nt,-2.8,nt,nt,
C[C@H](NC(=O)c1[nH]cnc1C(=O)Nc1ccc(CNC(=O)OC(C)(C)C)cc1)C(=O)OC(C)(C)C,99,nt,-3.2,nt,48%,
Cc1ccccc1OCCNc1ccc(C(F)(F)F)cc1[N+](=O)[O-],89,-9,1.1,-3,18%,
COc1cc2c(cc1NC(=O)c1cc(-c3ccccn3)nc3ccccc13)oc1ccccc12,-1,-7,-6.2,-5,4%,
OCc1cc(-c2ccc(Cl)c(Cl)c2)on1,9,nt,0.6,2,8%,
CC(C)=CCN1CCN(Cc2nc(-c3ccccc3)cs2)CC1CCO (stereo unspecified),-10,nt,-0.2,-4,12%,
COc1ccc(C(=O)CSc2n[nH]c(=O)n2Cc2ccco2)cc1,0,nt,1.5,nt,-4%,
CCOC(=O)c1c(NC(=O)OC)sc(C(=O)N(CC)CC)c1C,-4,-16,-0.1,0,6%,Arbovirus anti repeat=-2

# Filtered by structure: the compounds so far containing an NH in an aromatic ring.
SMILES,Mtb betalactam,YopH PTP inh,RecA intein inh,Arbovirus anti,Mtb H37Rv,others
C[C@H](NC(=O)c1[nH]cnc1C(=O)Nc1ccc(CNC(=O)OC(C)(C)C)cc1)C(=O)OC(C)(C)C,99,nt,-3.2,nt,48%,
COc1ccc(C(=O)CSc2n[nH]c(=O)n2Cc2ccco2)cc1,0,nt,1.5,nt,-4%,

# Continuation:
SMILES,Mtb betalactam,YopH PTP inh,RecA intein inh,Arbovirus anti,Mtb H37Rv,others
COc1ccc(CCNC(=O)CCc2ccc(OC)cc2)cc1,-3,nt,-0.3,nt,nt,
CC1CCCCN1CCNC(=O)CCc1nnc2n(Cc3ccccc3)c(=O)c3ccccc3n12 (stereo unspecified),?,nt,-1.5,nt,nt,
C/C(=N\Nc1ccc(Cl)c(C(=O)O)c1)c1cccs1,3,nt,7.5,nt,-2%,
CC(=O)NCCOc1cccc2cccnc12,0,7,1.9,-6,-11%,
Cc1cc([N+](=O)[O-])ccc1NC(=S)NC(=O)C(c1ccccc1)c1ccccc1,-15,-4,1.9,-25,5%,
C/C(=N\O)C(C)(C)Nc1ccc(Cl)cc1,-3,nt,1.9,nt,3%,
S=C1NNC2(NN1)C1CC3CC(C1)CC2C3,57,-30,-6.0,-1,0%,
CCOC(=O)c1ccc(NC(=O)C(C)NS(=O)(=O)c2ccc(OC)cc2)cc1 (stereo unspecified),2,-28,1.9,-6,-8%,
COc1cc(/C=N/NC(=O)Cc2nnc(N)s2)cc(OC)c1OC,-8,nt,-2.0,nt,-18%,
Cn1c2ccccc2c2c(C(=O)N3CCN(c4ccccn4)CC3)cn(C3CCCC3)c(=O)c21,-10,-5,5.4,-22,-1%,
Cc1ccc(C2=NNC(=Nc3ccc(F)cc3)SC2)cc1,nt,nt,nt,-15,5%,
Cc1cc(=O)c2ccccc2n1CC(=O)NCc1ccccc1,-2,-13,-0.1,21,1%,
COc1ccc(-c2cc3ccccc3n2CC(O)CN2CCN(CCO)CC2)cc1 (stereo unspecified),1,-23,nt,-18,5%,Arbovirus anti repeat=-17
COc1cccc(-c2nc(CS(=O)(=O)CC(=O)NCc3ccc(Cl)cc3)c(C)o2)c1,3,-9,1.0,-6,2%,Arbovirus anti repeat=-14
Clc1ccc(-c2cc(COc3ccccc3)no2)cc1Cl,56,-24,0.7,-1,nt,
S=C(NC1CCCCC1)N(CCc1ccccc1)CCc1ccccc1,-1,-37,2.5,16,0%,
O=C(CN1C(=O)CCC1=O)Nc1cccc(NC(=O)CN2C(=O)CCC2=O)c1,1,nt,-1.1,2,-3%,
COc1ccc(OCC(=O)Sc2ccc(C)cc2)cc1,3,11,20,-3,-2%,
C/C(=N\NS(=O)(=O)c1ccc(Br)cc1)c1cccs1,0,-16,-1.2,-19,1%,
O=C(Nc1cc(C(F)(F)F)ccc1Cl)C(Sc1cccc[n+]1[O-])c1ccccc1 (stereo unspecified),96,-9,0.7,-4,?,
COc1ccccc1NC(=O)c1cc(C)oc1C,1,nt,-0.9,-3,13%,
C=CCn1c(O)c(N=NC(=S)Nc2ccccc2F)c2ccccc21,64,nt,15,-9,-1%,
O=C(O)c1csc(Br)c1Br,-6,-14,1.1,8,-9%,
CCN(CC)C(=O)CSc1nc2cc3c(cc2c(=O)n1CCCCCC(=O)NCc1ccc(OC)cc1)OCO3,-4,nt,6.6,-9,3%,
CCCN(CC(=O)Nc1ccccc1OC)C(=O)CCCN1C(=O)c2ccccc2C1=O,0,nt,-1.6,nt,nt,
CCOC(=O)C1=C(C)Nc2[nH]c(=O)[nH]c(=O)c2C1c1cccs1 (stereo unspecified),-2,-14,0.5,-2,nt,
O=C1NC(=O)N(c2ccc3c(c2)OCO3)C(=O)/C1=C\c1ccsc1,-6,nt,-0.8,nt,-12%,
S=C(NCc1ccco1)N1CCOCC1,6,nt,-5.0,-3,1%,
Cc1ccc(NC(=O)COC(=O)Cn2c(C)csc2=O)cc1C,10,-43,0.1,10,0%,
CN(C)S(=O)(=O)c1ccc(N2CCCC2)c(C(=O)NNC(=O)COc2ccc(Cl)cc2)c1,-16,nt,-3.5,nt,nt,
O=C(NCc1ccccc1)c1cccc(S(=O)(=O)NCc2ccccc2)c1,-2,-18,0.2,-5,6%,
COc1cc(S(=O)(=O)N2CCN(C)CC2)ccc1Cl,2,-21,1.1,-1,-11%,
O=C(NCCC1=CCCCC1)C1CCN(S(=O)(=O)c2cccc3cccnc23)CC1,7,-23,0.8,-1,0%,Arbovirus anti repeat=13
COc1ccccc1N1C(=O)C(Cl)=C(Nc2ccccc2O)C1=O,nt,nt,21,-14,42%,
CC(Oc1ccccc1)C(=O)Nc1ccc(S(=O)(=O)NCC2CCCO2)cc1 (stereo unspecified),9,-21,0.7,4,9%,
Cc1cccc(-c2ncc(CN3CCN(CC(C)C)C(CCO)C3)cn2)c1 (stereo unspecified),-6,nt,-0.2,1,2%,
CC(=O)N[C@@H](Cc1c[nH]c2ccccc12)C(=O)OCC(=O)NCc1ccc2c(c1)OCO2,-7,nt,-0.6,13,-2%,
COc1ccc(/C=C/C(=O)N2CCN(C)CC2)cc1S(=O)(=O)N1CCCCC1,0,nt,-1.3,-1,6%,
COc1ccc([C@@H]2[C@@H]3C(=O)N(C(C)(C)C)C(=O)[C@@H]3[C@]3(CC(C)C)C(=O)N(c4cccc(Br)c4)C(=O)N23)cc1,-7,nt,8.8,nt,nt,
O=C(CCN1C(=O)/C(=C/c2ccccc2)SC1=S)NNC(=O)c1cccnc1,-2,-30,1.4,-7,0%,
CCSc1nnc(NC(=O)c2ccc3c(c2)OCO3)s1,0,24,1.8,8,1%,
CCCOc1ccc(Oc2cc(C)nc(SC)n2)nn1,0,-37,-1.8,6,0%,
Cc1ccc(S(=O)(=O)N2CCOCC2)cc1C(=O)NC1CCCC(C)C1C (stereo unspecified),-5,nt,0.0,nt,nt,
CC(CCc1ccccc1)NC(=O)c1ccccc1F (stereo unspecified),-4,nt,-1.5,nt,nt,
N/C(CN1CCCC1=O)=N\OC(=O)c1ccccc1Cl,-4,-6,-0.1,1,-4%,

# Entries above that have an aryl methoxy group (18):
SMILES,Mtb betalactam,YopH PTP inh,RecA intein inh,Arbovirus anti,Mtb H37Rv,others
COc1ccc(/C=C2\SC(=O)N(CC(=O)N(C)C3CCS(=O)(=O)C3)C2=O)cc1 (stereo unspecified),10,nt,1.6,nt,nt,
COc1ccccc1C(=O)NNC(=O)c1cccc(F)c1,-4,15,4.1,-6,-1%,
CCOc1ccc(N(CC(=O)NCCc2ccc(OC)cc2)S(C)(=O)=O)cc1,-6,nt,0.8,1,-4%,
COc1cc2c(cc1NC(=O)c1cc(-c3ccccn3)nc3ccccc13)oc1ccccc12,-1,-7,-6.2,-5,4%,
COc1ccc(C(=O)CSc2n[nH]c(=O)n2Cc2ccco2)cc1,0,nt,1.5,nt,-4%,
COc1ccc(CCNC(=O)CCc2ccc(OC)cc2)cc1,-3,nt,-0.3,nt,nt,
CCOC(=O)c1ccc(NC(=O)C(C)NS(=O)(=O)c2ccc(OC)cc2)cc1 (stereo unspecified),2,-28,1.9,-6,-8%,
COc1cc(/C=N/NC(=O)Cc2nnc(N)s2)cc(OC)c1OC,-8,nt,-2.0,nt,-18%,
COc1ccc(-c2cc3ccccc3n2CC(O)CN2CCN(CCO)CC2)cc1 (stereo unspecified),1,-23,nt,-18,5%,Arbovirus anti repeat=-17
COc1cccc(-c2nc(CS(=O)(=O)CC(=O)NCc3ccc(Cl)cc3)c(C)o2)c1,3,-9,1.0,-6,2%,Arbovirus anti repeat=-14
COc1ccc(OCC(=O)Sc2ccc(C)cc2)cc1,3,11,20,-3,-2%,
COc1ccccc1NC(=O)c1cc(C)oc1C,1,nt,-0.9,-3,13%,
CCN(CC)C(=O)CSc1nc2cc3c(cc2c(=O)n1CCCCCC(=O)NCc1ccc(OC)cc1)OCO3,-4,nt,6.6,-9,3%,
CCCN(CC(=O)Nc1ccccc1OC)C(=O)CCCN1C(=O)c2ccccc2C1=O,0,nt,-1.6,nt,nt,
COc1cc(S(=O)(=O)N2CCN(C)CC2)ccc1Cl,2,-21,1.1,-1,-11%,
COc1ccccc1N1C(=O)C(Cl)=C(Nc2ccccc2O)C1=O,nt,nt,21,-14,42%,
COc1ccc(/C=C/C(=O)N2CCN(C)CC2)cc1S(=O)(=O)N1CCCCC1,0,nt,-1.3,-1,6%,
COc1ccc([C@@H]2[C@@H]3C(=O)N(C(C)(C)C)C(=O)[C@@H]3[C@]3(CC(C)C)C(=O)N(c4cccc(Br)c4)C(=O)N23)cc1,-7,nt,8.8,nt,nt,
